Source: PubChem BioAssay (several laboratories)
RecA splice inh: Mtb RecA intein splicing inhibition; AID 2221; cell-free RecA intein splicing, fluorescence; actives 0.75% (n = 290,000); inhibition, %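 (about 9 µM by stock and volumes)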; in the data active means inhibition above about 30%;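 further: 0% = vehicle wells and 100% = reference inhibitor control wells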
Target sequence (P9WHJ3 whole entry, looked up, canonical isoform): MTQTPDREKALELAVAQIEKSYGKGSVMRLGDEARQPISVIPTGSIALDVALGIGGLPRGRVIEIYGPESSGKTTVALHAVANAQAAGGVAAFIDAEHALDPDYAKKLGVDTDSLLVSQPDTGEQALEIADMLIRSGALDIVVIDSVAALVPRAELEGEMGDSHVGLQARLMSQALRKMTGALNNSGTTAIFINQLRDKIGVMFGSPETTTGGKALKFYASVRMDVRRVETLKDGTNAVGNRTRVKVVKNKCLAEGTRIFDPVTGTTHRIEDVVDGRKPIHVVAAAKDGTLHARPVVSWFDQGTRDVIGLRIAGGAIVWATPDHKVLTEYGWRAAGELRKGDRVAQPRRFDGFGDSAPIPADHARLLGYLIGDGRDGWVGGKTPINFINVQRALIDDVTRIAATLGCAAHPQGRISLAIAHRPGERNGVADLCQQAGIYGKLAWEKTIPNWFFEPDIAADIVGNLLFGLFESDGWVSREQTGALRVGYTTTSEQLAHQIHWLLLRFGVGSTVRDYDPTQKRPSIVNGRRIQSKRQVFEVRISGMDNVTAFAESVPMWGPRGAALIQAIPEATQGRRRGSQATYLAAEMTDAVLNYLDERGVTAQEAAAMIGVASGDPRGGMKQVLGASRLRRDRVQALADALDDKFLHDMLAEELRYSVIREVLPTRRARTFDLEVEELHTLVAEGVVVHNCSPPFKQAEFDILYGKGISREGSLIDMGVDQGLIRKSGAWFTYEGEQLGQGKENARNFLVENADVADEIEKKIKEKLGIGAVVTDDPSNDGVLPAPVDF
Mtb growth: M. tuberculosis H37Rv growth inhibitors, H37Rv strain (AID 1626) | M. tuberculosis H37Rv growth inhibition; higher % means a stronger effect | one-dose inhibition, % at 10 µM; IC50 in µM for titrated hits | actives 0.95% (n = 220,000);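 active means confirmed in a dose series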;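 further: bacteria incubated seven days before Alamar blue readout; 0% = bacteria only wells and 100% = bacteria with antibiotic wells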
Arbovirus inh: antivirals against arbovirus infection; actives 0.37% (n = 200,000); arbovirus infection cell-based antiviral screen; inhibition, % at 10 µM;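 active means inhibition from about 30%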;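 further: bluetongue infection of BSR cells; cell survival read as ATP light after 72 h; 0% = infected wells without compound and 100% = uninfected wells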
YopH PTP inh: inhibitors of Yersinia enterocolitica YopH tyrosine phosphatase. fluorescence Ex485/Em525. inhibition, %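 (about 10 µM by stock and volumes)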. actives 0.16% (n = 140,000). AID 898;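 active means inhibition of 50% or more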;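 further: controls were vehicle for no effect and minimum signal wells for full effect; inactives centre near -20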
Mtb betalactam: beta-lactam sensitization of Mtb H37Rv | M. tuberculosis H37Rv growth with meropenem, percent inhibition; hits of this screen are not shown here | inhibition, % at 25 µM | actives 0.27% (n = 330,000) | AID 434955;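 active means about 74% or more and at least 40 points above the plate without the antibiotic, then above 30% in a dose series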;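 further: growth measured after seven days incubation then overnight dye step; 0% = bacteria only wells and 100% = bacteria with antibiotic; twin plates without the antibiotic show which effects depend on it; some results filed as inactive read as strong as hits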
Numbers without * were called inactive; x = not tested or not shown. Only part of the results is shown. The share of hits here may be higher or lower than overall.

entry | mol | RecA splice inh | Mtb growth | Arbovirus inh | YopH PTP inh | Mtb betalactam
1 | CCOC(=O)N/N=C(/C)c1cccc(-n2cnnn2)c1 | -0.1 | 4.3% | 0.7 | x | -2.8
2 | CCc1nnc(NC(=O)CSc2nnc(-c3ccc(O)cc3)n2C)s1 | -0.1 | -0.4% | 0.5 | x | -7.2
3 | CS(=O)(=O)N1CCN(c2ccccc2NC(=O)c2ccco2)CC1 | 1.2 | 4.7% | 5.6 | -34.2 | -2.2
4 | NC(=O)C1(N2CCCCC2)CCN(CC(=O)Nc2ccc(Oc3ccccc3)cc2)CC1 | 2.1 | 2.5% | -3.5 | -5.5 | 5.0
5 | Cc1cccc(N(CC(=O)Nc2ccccc2F)S(C)(=O)=O)c1 | -1.6 | -3.7% | 2.1 | -4.6 | 3.7
6 | CC(=O)c1c(N2CCOCC2)nc(=S)n(-c2ccccc2)c1C | 0.6 | -6.5% | -2.8 | -5.1 | -6.0
7 | O=C(CCCCl)NC(=S)Nc1ccc(CN2CCOCC2)cc1 | -7.0 | -3.1% | x | x | -4.2
8 | Cc1ccc(N(CC(=O)Nc2ccc(C)cn2)S(=O)(=O)c2c(C)nn(C)c2C)cc1 | 3.1 | -7.6% | -6.7 | -29.1 | -6.8
9 | O=C(Nc1cccc(C(=O)O)c1)/C(=C\c1ccco1)NC(=O)c1ccccc1 | -3.8 | x | x | x | -0.2
10 | COc1ccc(S(=O)(=O)NCC2CCCO2)cc1NC(=O)c1ccc(Cl)cc1 (stereo unspecified) | 1.0 | x | x | x | -6.3

Whole records from above. Values in the order: RecA splice inh	Mtb growth	Arbovirus inh	YopH PTP inh	Mtb betalactam
Entry for Cc1ccc(N(CC(=O)Nc2ccc(C)cn2)S(=O)(=O)c2c(C)nn(C)c2C)cc1 : 3.1	-7.6%	-6.7	-29.1	-6.8
Entry for O=C(CCCCl)NC(=S)Nc1ccc(CN2CCOCC2)cc1 : -7.0	-3.1%	x	x	-4.2
Entry for CS(=O)(=O)N1CCN(c2ccccc2NC(=O)c2ccco2)CC1 : 1.2	4.7%	5.6	-34.2	-2.2
Entry for COc1ccc(S(=O)(=O)NCC2CCCO2)cc1NC(=O)c1ccc(Cl)cc1 (stereo unspecified) : 1.0	x	x	x	-6.3
Entry for Cc1cccc(N(CC(=O)Nc2ccccc2F)S(C)(=O)=O)c1 : -1.6	-3.7%	2.1	-4.6	3.7

Next section.
entry | mol | RecA splice inh | Mtb growth | Arbovirus inh | YopH PTP inh | Mtb betalactam
11 | CCNC(=O)c1cc(S(=O)(=O)N2CCSCC2)ccc1OC | -0.2 | x | x | x | -1.9
12 | CCN1C(Nc2ccccc2)=NC[C@@H]1C | -1.7 | x | x | x | -4.8
13 | COc1ccc(NC(=O)C2CC(=O)N/C(=N/N=C/c3ccccc3)S2)cc1 (stereo unspecified) | x | -15.0% | x | x | 7.2
14 | Cc1c(NC(=O)CN2C(=O)c3ccccc3S2(=O)=O)c(=O)n(-c2ccccc2)n1C | 0.4 | -2.4% | 2.1 | 4.6 | -13.8
15 | Cn1c(N)c(C(=O)COC(=O)C23CC4CC(CC(C4)C2)C3)c(=O)n(C)c1=O | -2.9 | -2.5% | 10.1 | -4.4 | 12.0
16 | Cc1ccc(NC(=O)C2CCN(S(=O)(=O)c3ccc4c(c3)NC(=O)CO4)CC2)cc1C | -0.6 | x | x | x | -7.1
17 | CCC(=O)c1ccc(OCC(=O)NCC2(N3CCCCC3)CCCCC2)cc1 | 1.6 | 7.4% | -2.3 | x | 3.0
18 | C[C@H](C(=O)C=[N+]=[N-])N1C(=O)c2ccccc2C1=O | -2.4 | 1.6% | 4.9 | -25.9 | 3.4
19 | CCOC(=O)c1c(NC(=S)NC(=O)c2ccco2)sc2c1CCCC2 | -0.4 | -10.6% | 6.4 | -24.8 | -3.6
20 | COC(=O)CN1C(=O)COc2ccc(S(=O)(=O)NCc3ccccc3)cc21 | 2.1 | x | x | x | 5.2

Values in list order from above:
Arbovirus inh, nos. 12 to 19, in order: x, x, 2.1, 10.1, x, -2.3, 4.9, 6.4

The list continues:
entry | mol | RecA splice inh | Mtb growth | Arbovirus inh | YopH PTP inh | Mtb betalactam
21 | CC(=O)N1CCN(CC(=O)Nc2cccc(S(=O)(=O)N3CCCCCC3)c2)CC1 | 5.2 | 2.6% | -1.6 | x | 1.8
22 | O=C1CC(c2cccs2)c2ccc3ccccc3c2N1 (stereo unspecified) | -4.3 | 0.2% | 0.9 | x | -2.9
23 | CCOC(=O)C1=C(N)Oc2c(oc(CO)cc2=O)C1c1ccc(F)cc1 (stereo unspecified) | 0.4 | -3.2% | 7.2 | -10.2 | -25.0
24 | CCN1CCN(c2cc(C)nc(-c3ccccc3O)n2)CC1 | -2.0 | -4.0% | x | x | 6.1
25 | Cc1cccc(NC(=O)C2=C(O)c3ccccc3N(C)S2(=O)=O)c1 | -0.9 | -6.7% | 10.8 | -33.8 | 1.3
26 | NC(=O)C1CCN(C(=O)c2ccc([N+](=O)[O-])cc2NC(=O)c2cccs2)CC1 | -5.6 | x | x | x | -3.1
27 | O=C(CN1C(=O)/C(=C/c2ccccc2F)SC1=S)NC1C=CS(=O)(=O)C1 (stereo unspecified) | 1.3 | x | x | x | 1.6
28 | COc1cccc(OC)c1C(=O)NC(=O)Nc1c(C)cccc1C | -0.9 | x | x | x | 7.8
29 | NC(=O)C1CCN(C2CC(=O)N(Cc3ccc(N4CCCC4=O)cc3)C2=O)CC1 (stereo unspecified) | 1.7 | -4.9% | 2.1 | 12.6 | -2.3
30 | COC(=O)c1ccc(NC(=O)CSc2nc3ccccc3c(=O)[nH]2)cc1 | -1.0 | -9.8% | -5.7 | -21.4 | 25.7
31 | CN(CCN1CCOCC1)C(=O)c1cc(COc2ccc(F)c(F)c2)on1 | 0.8 | x | x | x | -10.6
32 | COc1ccc2ccccc2c1/C=N/NC(=O)c1nnn(-c2nonc2N)c1CN(C)C | -1.9 | x | x | x | -5.5
33 | CC(CNS(=O)(=O)c1ccccc1)(c1ccccc1)N1CCCCC1 (stereo unspecified) | 10.4 | -13.3% | x | x | -2.0
34 | CCCNC(=O)COC(=O)c1cc(C)nc2ccccc12 | -2.9 | 2.6% | 7.4 | x | -1.2
35 | CCCOc1ncnc2c1[nH]c1ccc(OC)cc12 | x | 6.7% | x | x | -0.8
36 | COc1ccc(C(=O)Nc2c(Cl)cc(Cl)cc2C(=O)N2CCC(C)CC2)cc1 | 7.6 | 3.0% | 4.8 | -27.7 | -3.4
37 | CCOC(=O)CSc1nnc(-c2ccc3ncccc3c2)n1C | -2.3 | 4.6% | x | x | -2.4
38 | O=C(O)c1ccccc1C1Nc2ccccc2C(=O)N1CCCN1CCOCC1 (stereo unspecified) | -1.7 | 10.3% | x | x | -7.0
39 | CCCCn1c(SCC(=O)/C(C#N)=C(\C)N)nc2ccccc2c1=O | 5.3 | 2.5% | -2.2 | -21.9 | 7.6
40 | COc1ccc(OC)c(/C=C(\NC(=O)c2ccccc2)C(=O)N/N=C/c2ccc(C)s2)c1 | -3.8 | -0.8% | -2.5 | -23.8 | 4.4
41 | Cc1ccc(OCc2n[nH]c(=S)n2-c2ccc(C)cc2)cc1 | 1.9 | -0.8% | -1.2 | x | 0.4
42 | Cc1ccc(S(=O)(=O)N(C)C)cc1NC(=O)c1cccnc1Oc1ccccc1 | 0.9 | -2.3% | x | x | -1.0
43 | Cn1c(=O)[nH]c(NC2CCCCC2)c([N+](=O)[O-])c1=O | -2.7 | 1.8% | 6.4 | -22.8 | 7.7
44 | Cc1ccc(C(C#N)c2ccc(C(=O)c3ccc(F)cc3)cc2)cc1 (stereo unspecified) | 9.2 | -7.8% | 6.0 | -26.4 | 1.0
45 | COc1ccc(NC(=O)c2cccnc2SC)cc1OC | -1.3 | -8.5% | 4.6 | x | -2.6
46 | CCN(CC)S(=O)(=O)c1ccc2oc(C(=O)Nc3ccc(OC)cc3OC)c(C)c2c1 | x | -5.7% | -8.9 | -20.5 | 31.2
47 | Cc1ccn2c(c1)nc(=O)c1cc(S(=O)(=O)N3CCCCC3)ccc12 | -2.8 | x | x | x | -1.1
48 | COc1ccc(/C=C(\C#N)C(=O)OCC(=O)NCc2ccccc2)cc1 | -1.9 | 4.5% | 1.3 | -1.1 | 2.0
49 | CCCNC(=O)/C=C/C(=O)O | -1.3 | -0.6% | 8.2 | x | 2.7
50 | COc1cc(CCCN2C(=O)C(=O)NC[C@H]2Cc2cccc3ccccc23)cc(OC)c1OC | -0.8 | -3.3% | x | x | -2.5

Continued.
Values run as follows: RecA splice inh | Mtb growth | Arbovirus inh | YopH PTP inh | Mtb betalactam
51) O=C(NC1CCCCC1)C1c2ccccc2C(=O)N1Cc1ccco1 (stereo unspecified)
→ 6.3 | -2.5% | 2.4 | -42.5 | -6.5
52) CCCC(=O)N1CCN(c2nc3ccc(Cl)cc3s2)CC1
→ 6.0 | x | x | x | 6.3
53) COc1cc(CC(=O)OCn2nnc3ccccc3c2=O)cc(OC)c1OC
→ -1.6 | 6.9% | 11.4 | x | -1.0
54) O=C(O)/C=C/C(=O)N1CCN(Cc2ccc3c(c2)OCO3)CC1
→ -1.9 | x | x | x | -3.9
55) NS(=O)(=O)c1ccc(S(=O)(=O)N(Cc2ccccc2F)CC2CCCO2)cc1 (stereo unspecified)
→ 0.3 | 3.6% | 0.8 | -47.0 | 6.9
56) Cc1cccc(C(=O)Nc2sc(C)c(-c3ccccc3)c2C#N)c1
→ 6.2 | 10.5% | 14.8 | -24.2 | 3.9
57) COC(=O)c1cc(S(=O)(=O)N(C)C2CCCCC2)c[nH]1
→ -0.1 | x | x | x | -1.3
58) CCOC(=O)CC1C(=O)NCCN1C(=O)c1ccc(F)cc1F (stereo unspecified)
→ -3.4 | -3.5% | 8.9 | 11.7 | -4.2
59) O=C(NCc1ccco1)c1n[nH]c(=O)c2ccccc12
→ 0.7 | 1.1% | 0.6 | -8.9 | 4.0
60) Cc1cc(NC(=O)CN2CCN(C)CC2)no1
→ 0.9 | 6.0% | 3.9 | x | -8.2
61) O=C(NCCc1ccccc1)c1nc2c(nnn2Cc2ccccc2Cl)c(=O)[nH]1
→ 0.7 | 6.2% | -14.8 | -12.7 | 31.9
62) O=C(c1ccc2c3c(cccc13)CC2)C1CCCN(Cc2ncc[nH]2)C1 (stereo unspecified)
→ 3.6 | -5.6% | 6.8 | x | 9.4
63) CCOc1ccccc1N(C)C(=O)Cn1ncc2c([nH]c3ccc(C)cc32)c1=O
→ -2.1 | x | x | x | -3.5
64) O=C(NCc1cccs1)C1CCN(S(=O)(=O)c2ccc(Br)s2)CC1
→ 0.9 | 3.7% | 3.5 | -5.2 | -4.0
65) CCOc1ccc(NC(=O)CSc2nc3nc(C)cc(C)n3n2)cc1
→ 1.9 | x | x | x | 0.6
66) Cc1nc2c([nH]1)C1(CCN(Cc3ccccc3)CC1)C(C#N)=C(N)O2
→ x | 3.8% | -8.9 | -9.0 | 3.0
67) COc1ccc(C(=O)CSc2nnc(-c3ccco3)c(-c3ccco3)n2)cc1
→ 18.4 | 3.2% | -6.7 | x | x
68) CCC(=O)Nc1ccc(F)c(Cl)c1
→ -3.1 | 19.3% | 7.7 | -15.0 | 1.2
69) Cc1cc(C(C)(C)C)n2nc(C)c(-c3ccccc3)c2n1
→ -4.4 | x | x | x | -0.9
70) COc1ccc(C)cc1S(=O)(=O)N1CCN(S(=O)(=O)c2cc(C(=O)O)ccc2C)CC1
→ -0.3 | x | x | x | -5.0
71) Cc1nc2cc(-c3ccccc3)nn2c(C)c1CCC(=O)NCc1ccco1
→ -1.0 | 0.7% | 2.5 | -9.2 | 0.6
72) Cc1ccc2nc(CNC(=O)C3CCC(=O)N(Cc4ccccc4F)C3)cn2c1 (stereo unspecified)
→ 3.7 | x | x | x | -3.4
73) O=c1c(C(c2ccc(F)cc2)c2c(O)nc3n(c2=O)CCS3)c(O)nc2n1CCS2
→ 1.3 | -5.9% | x | x | -8.6
74) COc1ccc(COc2ccc3c(C)cc(=O)oc3c2)cc1
→ 0.3 | x | x | x | 4.8
75) CC(=O)c1ccc(NC(=O)CN2CCOCC2)cc1
→ -0.2 | x | x | x | -4.7
76) O=S(=O)(c1ccccc1)N1CCN(c2ncnc3sc(-c4ccccc4)cc23)CC1
→ 4.2 | -9.3% | 3.2 | -33.6 | x
77) C/C=C\C=C/C(=O)Nc1cccc(C2=NOC3(C2)C[C@@H](C(N)=O)N(C(=O)/C=C/C=C\C)C3)c1 (stereo partly specified)
→ -3.8 | -7.2% | x | x | -7.5
78) COC(=O)c1ccccc1NC(=O)C1CCN(C(=O)c2ccc(OC)cc2)CC1
→ 0.3 | 2.3% | 3.3 | -2.3 | -4.3
79) Cc1ccc(S(=O)(=O)N(C)CC(=O)N2CCN(Cc3ccccc3)CC2)cc1
→ -1.2 | x | x | x | -3.6
80) CN1CCC(=O)N([C@H](CO)Cc2ccccc2)CC1
→ -4.1 | x | x | x | 3.5
